PABP FP inh: PABP-poly(A) binding inhibition; PABP-poly(A) RNA binding, fluorescence polarization; inhibition, % at 35 µM; 290,000 tested, 1% active;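 active means 50% or more with normal probe brightness, or confirmed in later tests; inconclusive means above 50% with abnormal brightness, or retests that disagree; inactive means below 50% or failed in later tests; about a fifth of its hits are not listed in these tables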;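 further: calls also rest on retests at 20 µM and on dose response follow-up; controls were probe without protein and protein plus probe with vehicle; some compounds called inactive have numbers as strong as hits; many hits fall short of the cut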
Rce1 inhib: yeast Ras-converting enzyme inhibition; Q03530; yeast membranes, quenched prenylated peptide cleavage fluorescence; calls only; 290,000 tested, 0.27% active;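 active means fall in fluorescence gain of 50% or more versus controls, with final raw signal at or below 3038400; inconclusive means same 50% fall but final raw signal above 3038400; inactive means fall in fluorescence gain under 50%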;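 further: plate controls were neutral control wells for no effect and wells lacking membranes for full effect; tested at 10 µM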
Target sequence (Q03530 whole entry, looked up): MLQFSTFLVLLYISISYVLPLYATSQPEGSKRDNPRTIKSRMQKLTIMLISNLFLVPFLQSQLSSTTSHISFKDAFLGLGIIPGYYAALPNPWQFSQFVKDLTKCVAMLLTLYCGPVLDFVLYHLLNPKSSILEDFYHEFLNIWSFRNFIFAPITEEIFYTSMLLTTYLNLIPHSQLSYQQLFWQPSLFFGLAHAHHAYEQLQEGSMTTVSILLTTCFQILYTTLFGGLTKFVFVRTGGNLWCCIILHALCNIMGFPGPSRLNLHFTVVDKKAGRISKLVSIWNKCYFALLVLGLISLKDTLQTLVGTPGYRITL
Yeast UUG start: modulators of start codon recognition fidelity in yeast. S. cerevisiae UUG-firefly luciferase reporter, luminescence/redox ratio. activity score, % at 18.7 µM. 350,000 tested, 0.13% active;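 active means replicate mean at a twofold rise or more, about +100% in these data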;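 further: firefly luciferase made from a UUG start codon reports start codon fidelity; reporter light over untreated wells divided by growth signal over untreated wells; some hits fall short of that in this replicate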
Env fusion inh: HIV envelope-mediated fusion inhibition; HeLa-JRFL Env/CEM21 cell fusion, luciferase; inhibition, % at 12.3 µM; 360,000 tested, 1.1% active; AID 651610;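 active means mean replicate inhibition score of at least 50 and every replicate individually at or above 50; inconclusive means only one of the two criteria met; inactive means mean below 50 and not all replicates reaching 50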;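 further: 0% = plate neutral controls and 100% = maraviroc near 300 nM; one replicate is shown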
eIF4H FP inh: inhibitors of RNA binding by human eIF4H; 290,000 tested, 0.94% active; AID 2012; eIF4H fluorescence polarization binding assay; inhibition, % at 35 µM; Q15056;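 active means 50% or more with normal probe brightness, or confirmed in later tests; inconclusive means above 50% with abnormal brightness, or retests that disagree; inactive means below 50% or failed in later tests; about a fifth of its hits are not listed in these tables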;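 further: calls also rest on retests at 20 µM and on dose response follow-up; 0% = protein and probe with vehicle and 100% = probe without protein; strong numbers were not always called active; many hits fall short of the cut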
MT1-MMP act inh: blocks activation of human MT1-MMP; HT1080 RFP-PRO-GFP cells, GFP/RFP ratio fluorescence, overnight; percent of plate control window, DMSO zero; GFP/RFP ratio change, % at 20 µM; 360,000 tested, 0.061% active; AID 651647;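 active means GFP/RFP ratio change of at least 30% with cell ATP level not reduced by more than half and red fluorescence within 50% of control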; further: strong numbers were not always called active
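Assay system: HT1080 RFP-PRO-GFP cells. Benchmarks: DMSO vehicle wells and RFP-L50D-GFP reporter cell wells. Times: overnight cell settling, then overnight compound exposure, 37 °C, 5% CO2. Compound: 20 µM single dose, 1% DMSO. Read-out basis: GFP/RFP fluorescence ratio.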
CSC inhib: cancer stem cell inhibition; cancer stem cell-like cells viability, luminescence; inhibition, % at 7.5 µM; 300,000 tested, 1.1% active; AID 2717;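 active means mean at 75% or more and at least half the replicates too; inconclusive means mean and replicates disagree; tested in HMLE shEcad cells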;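 further: 0% = median of negative and 100% = median of positive control wells; the first replicate is given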
eIF4H FP inh retest: second read-out of eIF4H FP inh, no call of its own (marks repeat the call); inhibition, %; compound at 20 µM; confirmation average;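 mean of two retest wells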
PABP FP inh retest: also measured in PABP FP inh; calls as there; inhibition, %; compound at 20 µM; confirmation repeats;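 mean of two retest wells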
MT1-MMP act inh RFP: also measured in MT1-MMP act inh; calls as there; RFP signal change, %; measured here: RFP expression control read;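 0 = vehicle wells; hits needed this value within 50% of zero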
* = called active by the depositor; i = inactive; u = inconclusive; x = not tested or not shown; [ ] = remark or other dose. A portion of the library; rates above refer to the full screens.

SMILES | PABP FP inh | Rce1 inhib | Yeast UUG start | Env fusion inh | eIF4H FP inh | MT1-MMP act inh | MT1-MMP act inh RFP | CSC inhib | others
CC(C)(C)c1ccc(C(=O)NNc2ccc(F)cc2F)cc1 | -4 | i | -15 | -17 | -5 | 4 | 6 | 28
CC(C)n1c(/N=C/c2ccccc2O)nc2ccccc21 | -7 | i | -15 | -3 | -3 | -1 | 2 | -12
COc1ccc(NC(=O)CSCC(=O)Nc2ccccc2C(=O)N2CCCCC2)cc1 | x | x | -7 | x | x | -2 | 2 | -7
CC(=O)n1cc([C@H]2C=C(C(=O)NCc3ccccc3)O[C@@H](OCCCCO)C2)c2ccccc21 | 5 | i | -13 | 0[16.7 µM] | 7 | -4 | 1 | 14
CC1(Oc2ccccc2)CCN(Cc2ccc(-c3ccccn3)cc2)C1 (stereo not given) | x | x | -4 | 30 | x | 0 | 1 | x
COCCNC(=O)C1CCN(S(=O)(=O)c2ccc3c(c2)OCCO3)CC1 | x | i | -21 | 2 | x | 3 | 3 | -17
O=C(Cc1cccc(C(F)(F)F)c1)Nc1cc(S(=O)(=O)N2CCOCC2)ccc1N1CCCC1 | x | x | x | -4 | x | 0 | 1 | -7
CC(/C=N/NC(=O)c1ccc2nc(C)[nH]c2c1)=C\c1ccccc1 | 8 | i | x | -15 | -5 | 2 | 4 | 11
Cc1c(Br)c([N+](=O)[O-])nn1CC(=O)NCCc1ccc(Cl)cc1 | -10 | i | -12 | 3 | 4 | 6 | 5 | 10
CCOC(=O)/C(=C\c1cccc(O)c1)c1nc2sc(C)c(C)c2c(=O)[nH]1 | -11 | i | x | -29 | -4 | -7 | -9 | 60
NS(=O)(=O)c1cccc(NC(=O)Nc2ccccc2)c1 | -6 | i | -19 | -2 | -4 | 2 | 2 | 0
CCC1Nc2ccccc2-c2nnc(SC)nc2O1 (stereo not given) | 40 | i | -4 | x | 1 | 7 | 9 | -7
CC(=O)N(C)c1nc(N)n(-c2ccccc2)n1 | 4 | i | x | 3 | 2 | -7 | -4 | -3
O=C(NCC1CCCO1)Nc1ccccc1 (stereo not given) | -12 | i | -17 | -268 | -4 | 3 | 1 | 4
COc1cc(/C=N\NC(=O)OC(C)(C)C)ccc1OC(=O)c1ccco1 | -6 | i | x | -8 | -11 | 5 | 0 | -8
CC1(C)C2C(Cl)(Cl)C2(C)c2ccccc2N1C=O (stereo not given) | -4 | i | -8 | -6 | 3 | -1 | -4 | -6
COc1cccc(OCC(=O)NNC(=O)c2cccs2)c1 | -8 | i | 2 | x | -9 | -2 | 4 | -8
COc1ccc(NCc2nc3ccccc3n2CCOc2ccccc2)cc1 | 4 | i | -31 | 18 | -8 | 5 | 3 | -7
O=C(O/N=C1/CCCc2occc21)c1ccccc1 | -10 | i | -44 | x | 4 | 2 | 8 | -8
COc1ccc(-c2nc3cccc(C)n3c2NCc2ccco2)cc1OC | -8 | i | -12 | x | -3 | 17 | 15 | -1
Cc1cccc(C)c1OCC(=O)NCC1CCCO1 (stereo not given) | -3 | i | -3 | 4 | -3 | 3 | 1 | -2
N#CC1=C(N)C(C#N)(C#N)[C@H](c2ccsc2)[C@H]2COCC=C12 | 111 | i | -14 | -11 | 113 | -31 | 7 | -26 | eIF4H FP inh retest=-4;PABP FP inh retest=0
CN1Cc2sc(NC(=S)NC(=O)c3ccccc3)c(C#N)c2CC1(C)C | u | x | x | 11 | u | x | x | 9
CC(C)C[C@@H](CN)NC(=O)c1nc[nH]c1C(=O)N[C@@H](Cc1ccccc1)C(=O)CNC[C@H](C)NC(=O)c1nc[nH]c1C(=O)N[C@@H](C)C(=O)O | x | x | 0 | 29 | x | 3 | 4 | x
CC(=O)c1ccc(S(=O)(=O)N2CCN(C(=O)CSc3ccc(F)cc3)CC2)cc1 | 0 | i | 2 | 3 | -8 | 1 | -3 | 7
CCOC(=O)CSc1nnc(CNC(=O)c2ccc(S(=O)(=O)N3CCCC3)cc2)n1C | -6 | i | x | -86 | -4 | -4 | 5 | -5
COc1cc(C(=O)Nc2ccc3c(c2)OCCO3)c(-n2cnnn2)cc1OC | 1 | i | 9 | 25 | -1 | 4 | 3 | -12
COc1cccc(-c2cc(-c3cccnc3)c(C#N)c(N)n2)c1 | 2 | i | 10 | 46 | -10 | 1 | 0 | -11
Cc1nn(Cc2ccccc2)c2c1C(c1cccnc1)C(C#N)=C(N)O2 (stereo not given) | 8 | i | -17 | x | 3 | 0 | 2 | -18
CC(c1nc2ccccc2c(=O)[nH]1)N1CCN(S(=O)(=O)c2ccc(F)c(Cl)c2)CC1 (stereo not given) | x | x | -8 | 24 | x | -3 | -2 | x
c1ccc(C2CCCN(Cc3nc(CC4CC4)no3)CC2)cc1 (stereo not given) | -8 | i | -9 | -1 | -4 | 0 | 0 | -11
COCCNC(=O)C1(C)CCN(C(=O)c2cc(C)nn2C(C)(C)C)C1 (stereo not given) | x | x | 2 | 2 | x | 1 | 4 | x
CCN(CC)S(=O)(=O)c1ccc(N2CCOCC2)c(NC(=O)C(C)(C)C)c1 | -5 | i | x | 25 | -11 | 0 | -4 | 4
O=C(CCCn1c(SCc2cccc(F)c2)nc2ccccc2c1=O)NCC1CCCO1 (stereo not given) | -1 | i | x | 14 | -4 | 3 | 4 | -2
NC(=O)c1ccc(N2CCNC(=O)C2)c([N+](=O)[O-])c1 | 18 | i | -15 | 3 | 4 | -3 | -2 | -3
CCN(CC(=O)Nc1ccc(NC(C)=O)cc1)C(=O)/C=C/c1cn(-c2ccccc2)nc1-c1cccs1 | x | i | -22 | -12 | x | 3 | -2 | 7
Cc1ccc(-c2csc(NC(=O)C3=NN(C4CCS(=O)(=O)C4)C(=O)CC3)n2)cc1 (stereo not given) | -3 | i | -9 | 3 | -2 | -2 | -1 | -10
Cc1ccccc1NC(=S)N(Cc1ccccc1)Cc1cccs1 | -11 | i | x | 3 | -6 | -1 | 3 | -17
Cc1ccc(CNC(=O)Cn2cnc3cc([N+](=O)[O-])ccc3c2=O)cc1 | 0 | i | x | 16 | 9 | 0 | -3 | -9
CCn1nnnc1SCC(=O)Nc1nnc(C(C)C)s1 | 1 | i | -12 | -3 | -6 | 5 | 4 | -10

Gathered by group, the compounds so far containing a nitro group on carbon (three)
SMILES | PABP FP inh | Rce1 inhib | Yeast UUG start | Env fusion inh | eIF4H FP inh | MT1-MMP act inh | MT1-MMP act inh RFP | CSC inhib | others
Cc1c(Br)c([N+](=O)[O-])nn1CC(=O)NCCc1ccc(Cl)cc1 | -10 | i | -12 | 3 | 4 | 6 | 5 | 10
NC(=O)c1ccc(N2CCNC(=O)C2)c([N+](=O)[O-])c1 | 18 | i | -15 | 3 | 4 | -3 | -2 | -3
Cc1ccc(CNC(=O)Cn2cnc3cc([N+](=O)[O-])ccc3c2=O)cc1 | 0 | i | x | 16 | 9 | 0 | -3 | -9

Later entries
SMILES | PABP FP inh | Rce1 inhib | Yeast UUG start | Env fusion inh | eIF4H FP inh | MT1-MMP act inh | MT1-MMP act inh RFP | CSC inhib | others
C[C@@]12CCC[C@@](C)(C(=O)O)C1CC[C@@]13C[C@@H](NCc4ccccc4)[C@@](C)(CCC12)C3 (stereo not given in full) | x | x | 8 | -12 | x | -1 | 0 | -9
Cn1c(CCNC(=O)c2cccs2)nnc1SCC(=O)Nc1nc(-c2ccccc2)cs1 | 10 | i | -19 | x | 6 | -3 | -1 | 0
O=C(O)c1ccc(OS(=O)(=O)c2ccc(Cl)s2)cc1 | x | x | -14 | -1 | x | 10 | 4 | x
Cc1noc(C)c1COC(=O)c1ccc(S(=O)(=O)N2CCCCC2)cc1 | 17 | i | 1 | 11 | 0 | 1 | 0 | -7
CC(=O)c1cccc(NC(=O)Cn2nc(-c3ccc(Cl)cc3)ccc2=O)c1 | 0 | i | x | -19 | -14 | 1 | 0 | -2
CCCNC(=O)c1n[nH]c(=O)c2ccccc12 | -1 | i | -16 | x | 2 | -1 | 0 | -8
O=S(=O)(N1CCCCC1)N1CCN(c2cc(Cl)ccc2Cl)CC1 | -12 | x | x | 6 | -4 | -7 | -11 | 26
COc1ccc(CCN(C)C2CCCN(C(=O)CCC(F)(F)F)C2)cc1OC (stereo not given) | -15 | i | -15 | 6 | 1 | 2 | 1 | -7
COC(=O)c1[nH]c2ccc(Cl)cc2c1NC(=O)CN1CCc2cc(OC)c(OC)cc2C1 | 18 | i | -37 | x | 1 | 4 | -7 | -13
Cc1ccccc1-n1c(N)c(C(=O)Nc2ccc(F)cc2)sc1=S | 5 | i | -10 | 9 | 9 | -2 | 0 | -7
CCOc1ccccc1C(=O)NN1C(=O)CCC1=O | 9 | i | x | -8 | 3 | -8 | 1 | -5
CN(CC(=O)Nc1ccccc1Br)C(=O)C(Cc1ccccc1)NC(=O)c1ccccc1 (stereo not given) | 5 | i | -9 | x | 6 | 0 | 1 | -8
COc1ccccc1CNC(=O)c1cc(S(=O)(=O)N2CCN(c3ccccc3)CC2)ccc1Cl | x | x | -1 | 3 | x | 5 | -5 | x
CCOC(=O)[C@H]1[C@H]2COc3cc(OC)ccc3[C@@H]2N2C(=O)CN(Cc3ccc(Cl)cc3)C(=O)[C@@]12C | x | x | -9 | 16 | x | -8 | -4 | -21
O=C(Nc1ccc(Cl)cn1)C1CCCN(c2ncnc3c2nc2n3CCCCC2)C1 (stereo not given) | -1 | i | 10 | 4 | -4 | -5 | -11 | x
CSc1nc(C)cc(C)c1C#N | 0 | i | x | x | 36 | 2 | 5 | 6
CC(=O)Nc1ccc2c(c1)nc1n2CCN(C(C)c2ccccc2)C1 (stereo not given) | -6 | i | -11 | 6 | -4 | -3 | 3 | -4
CCOC(=O)[C@@H]1[C@H]2COc3cc(OC)ccc3[C@H]2N2C(=O)N(c3cccc(F)c3)C(=O)[C@@]12C | x | x | -6 | 95* | x | -3 | -6 | -6
Cc1ccc(NC(=O)COC(=O)CCc2c[nH]c3ccccc23)cc1 | x | x | -12 | 19 | x | 0 | 8 | x
Cc1ccc(C)c(NC(=S)N2CCN(S(C)(=O)=O)CC2)c1 | 1 | i | -14 | 13 | 60 | 1 | 5 | -13 | eIF4H FP inh retest=-6;PABP FP inh retest=10

Random excerpt: seven compounds from above, in no set order.
SMILES | PABP FP inh | Rce1 inhib | Yeast UUG start | Env fusion inh | eIF4H FP inh | MT1-MMP act inh | MT1-MMP act inh RFP | CSC inhib | others
CC1(C)C2C(Cl)(Cl)C2(C)c2ccccc2N1C=O (stereo not given) | -4 | i | -8 | -6 | 3 | -1 | -4 | -6
CCCNC(=O)c1n[nH]c(=O)c2ccccc12 | -1 | i | -16 | x | 2 | -1 | 0 | -8
Cn1c(CCNC(=O)c2cccs2)nnc1SCC(=O)Nc1nc(-c2ccccc2)cs1 | 10 | i | -19 | x | 6 | -3 | -1 | 0
COc1ccc(CCN(C)C2CCCN(C(=O)CCC(F)(F)F)C2)cc1OC (stereo not given) | -15 | i | -15 | 6 | 1 | 2 | 1 | -7
CCOC(=O)CSc1nnc(CNC(=O)c2ccc(S(=O)(=O)N3CCCC3)cc2)n1C | -6 | i | x | -86 | -4 | -4 | 5 | -5
Cc1c(Br)c([N+](=O)[O-])nn1CC(=O)NCCc1ccc(Cl)cc1 | -10 | i | -12 | 3 | 4 | 6 | 5 | 10
COc1ccccc1CNC(=O)c1cc(S(=O)(=O)N2CCN(c3ccccc3)CC2)ccc1Cl | x | x | -1 | 3 | x | 5 | -5 | x
